H5N1 antiviral – MDCK cell protection from H5N1 avian flu | cytopathic effect, luminescence, 72 h; active compounds read high; no value below 0 was filed and about half of the inactive calls have no number; reference of the scale not given here | 96,000 tested, 0.07% active | inhibition, % at 50 µM; in the data active means inhibition above about 25%
Active calls of the source: *; i = inactive. Not all compounds are listed; rates above refer to the full screens.

SMILES	H5N1 antiviral
CN1CCN(C(=O)C2(NC(=O)Nc3cccc(F)c3)CCCCC2)CC1	i
CCN(c1ccc(NC(=O)COC(=O)c2ccc(S(=O)(=O)N3CCCC3)cc2)cc1)C(C)C	2.7
O=c1[nH]c(N2CCN(c3ccccc3)CC2)nc2c1CCCC2	i
CCn1c(SCC(=O)Nc2ccccc2)nnc1-c1ccc(S(=O)(=O)N2CCOCC2)cc1	i
O=C(NCCc1c[nH]c2ccccc12)c1cnc2n(c1=O)CCS2	0.6
Cc1cc(C(=O)OCCN2C(=O)c3ccccc3C2=O)c2ccccc2n1	4.3
Cc1cc(C(=O)N2CCN(c3ccccn3)CC2)no1	i
CC1(C)CC(=O)C(C=NCCN2CCN(C(=O)c3ccccc3)CC2)=C(O)C1	1.4
CCOc1ccc(C(=O)Nc2ccccc2N2CCCC2)cc1	0.4
COc1cccc(C(=O)NCC2CCN(c3ccc(S(=O)(=O)N4CCOCC4)cc3)CC2)c1	1.4
O=S(=O)(c1ccc(N2CCN(c3ccc(F)cc3)CC2)cc1)N1CCCC1	i
CS(=O)(=O)N1CCN(Cc2ccc(C(F)(F)F)cc2)CC1	i
O=C1CC(C(=O)NCc2ccccc2)N=C(N2CCCCC2)N1 (stereo not drawn)	0.5
CCOc1ccc(C(C)=O)cc1CSc1nnc(-c2cccs2)n1CC1CCCO1 (stereo not drawn)	0.9
C=CCSc1nc(C)c(CC(=O)OCCCC)c(=O)[nH]1	i
O=C(Cc1cccs1)NCc1ccc(F)cc1	i
O=C(COC(=O)c1cncc(Br)c1)NCC1CCCO1 (stereo not drawn)	0.1
O=C(C1=COCCO1)N1CCN(S(=O)(=O)c2cccc(Cl)c2Cl)CC1	0.8
Cc1c(C)n(Cc2ccccc2)c2ncnc(N)c12	i
CN(C)c1ccc(C(=O)OCc2ccccc2)cc1	i
Cc1ccc(NC(=O)CSc2nnc(-c3cnccn3)n2-c2ccccc2)cc1	i
CCc1nc(-c2ccc(C)nc2OC)no1	0.5
COC(=O)CCC(=O)N1CCc2cc(S(=O)(=O)N3CCN(c4ccccc4Cl)CC3)ccc21	0.8
CCOC(=O)c1cnc2ccccc2c1NCCO	i
COc1ccc(OC)c(C2c3c(oc4ccccc4c3=O)C(=O)N2CCCN(C)C)c1 (stereo not drawn)	0.2
Cc1ccc(-c2nc(CS(=O)(=O)CC(=O)N3CCc4ccccc4C3)c(C)o2)cc1	1.8
CCn1c(SCC(=O)c2ccc(Br)cc2)nnc1C(C)NC(=O)Cc1ccc(OC)cc1 (stereo not drawn)	i
CCOC(=O)CN1C(=O)C(=O)c2cc(C)ccc21	i
O=C(NC1CCN(C(=S)NCc2ccco2)CC1)c1ccc(F)cc1	i
Nc1c(C(=O)NCc2ccco2)nnn1CC(=O)Nc1ccccc1	i
O=C(O)Cn1c(SCCOc2ccccc2F)nc2ccccc21	0.2
CCOc1ccc(NS(=O)(=O)c2ccc3c(c2)CCN3C(=O)C2CCC2)cc1	0.9
O=C(NCc1ccc2c(c1)OCO2)C1CCC(CNS(=O)(=O)c2ccc(Cl)cc2)CC1 (stereo not drawn)	0.7
c1ccc(N2CCN(Cc3cn4cccnc4n3)CC2)cc1	0.3
S=C(N/N=C/c1ccccc1Cl)Nc1ccccc1	2.6
Cc1coc2cc3oc(=O)c4c(c3cc12)CCCC4	1.9
Cc1ccc(C(=O)N/N=C\c2ccc(Br)o2)o1	1.1
CC(C)CNC(=O)CN(C1CCCCC1)S(=O)(=O)c1ccccc1	i
COc1ccc(CCC2(C)NC(=O)NC2=O)cc1 (stereo not drawn)	1.5
Cc1ccc2c(c1)-c1c(ssc1=S)C(C)(C)N2C(=O)CSC1=NCCS1	2.6
CCCNc1cc(C)oc(=O)c1C(=O)CCC	i
CC(C)(C)c1ccc(OCc2nc(-c3ccccn3)no2)c(Br)c1	0.4
COC(=O)C(NC(=O)c1ccccc1)(Nc1nccs1)C(F)(F)F (stereo not drawn)	i
CCCn1c(C)nc2c(c1=O)c1nc3ccccc3nc1n2CCC1=CCCCC1	2.6
O=C(COC(=O)c1ccc(S(=O)(=O)NCc2ccco2)cc1)NC1CCCCCC1	i
CNC(=S)N/N=C1\C(=O)c2cccc3cccc1c23	i
COC(=O)C1(S(=O)(=O)c2cccc3nsnc23)CC1	0.4
OC(COCC1COc2ccccc2O1)CN1CCN(c2ccccc2F)CC1 (stereo not drawn)	0.7
O=C1Nc2ccc(Br)cc2C1(O)Cc1ccncc1 (stereo not drawn)	0.7
Cc1cc(C(=O)Nc2sc3c(c2C#N)CCC3)no1	i
COc1ccc(CN(C)C2CCCCC2)c(C)c1C	i
c1cnc(SCCOc2cccc3ccccc23)nc1	0.3
COCC(C)n1c(C)cc(C(=O)CN2C(=O)NC(Cc3c[nH]c4ccccc34)C2=O)c1C (stereo not drawn)	0.4
O=C(NC(=S)Nc1ccc(S(=O)(=O)N2CCCCC2)cc1)c1ccc(Cl)cc1	0.1
CC(C)(C)NC(=O)c1ccc2nccnc2c1	0.9
CCN(CC)c1nc(OCCNC(=O)Nc2ccccc2)nc(N(CC)CC)n1	0.3
COc1cc(/C=N/c2oc(-c3ccccc3)cc2C#N)ccc1O	0.5
COc1ccc(Cl)cc1Nc1nc(-c2sc(NC(=O)c3ccccc3)nc2C)cs1	i
CCC1(CC)NC(=O)N(CC(=O)OCn2nnc3ccccc3c2=O)C1=O	i
FC(F)(F)c1cccc(Nc2ncnc3ccccc23)c1	i

Continuation.
SMILES	H5N1 antiviral
CCCCCCNCCn1cnc2c(N)ncnc21	i
CCCCCC(=O)N1CCN(c2ccc(C(C)=O)cc2F)CC1	0.9
COCCNc1oc(-c2ccc(Cl)cc2)nc1C#N	i
CCOc1ccc2nc(NC(=O)CSc3nc4ccccc4c(=O)n3Cc3ccco3)sc2c1	i
Cc1c(CCOC(=O)C23CC4CC(CC(C)(C4)C2)C3)sc[n+]1Cc1ccccc1	i
O=C(/C=C/c1ccc(-c2ccccc2[N+](=O)[O-])o1)c1ccc(Br)cc1	i
C=CCn1c(SCC(=O)Nc2ccc3c(c2)OCO3)nnc1-c1ccccc1	0.7
Clc1ccccc1CSc1nnc(-c2ccccn2)n1Cc1ccco1	i
CCN(CC)C(=O)COC(=O)c1ccc(O)cc1	0.2
CCCc1cc(N2CCCC2)n2nc(C)c(-c3ccccc3)c2n1	0.2
Cc1noc(C)c1C(=O)OCC(=O)Nc1cc(Cl)ccc1Oc1ccccc1	3.5
CCOC(=O)c1c(NC(=O)CSc2nnnn2-c2ccc(OC)cc2)sc(C)c1C	i
S=c1nn[nH]n1C12CC3CC(CC(C3)C1)C2	i
N#Cc1nc(-c2ccco2)oc1NCCCn1ccnc1	0.8
NC(=O)C1CCN(Cc2nc(-c3ccccc3)no2)CC1	0.3

Three entries from above, arranged by number of heavy atoms, low to high.
SMILES	H5N1 antiviral
CCCCCCNCCn1cnc2c(N)ncnc21	i
Cc1c(CCOC(=O)C23CC4CC(CC(C)(C4)C2)C3)sc[n+]1Cc1ccccc1	i
CCOc1ccc2nc(NC(=O)CSc3nc4ccccc4c(=O)n3Cc3ccco3)sc2c1	i

New compounds follow:
SMILES	H5N1 antiviral
CCOC(=O)N1CCN(C(=O)CCN2C(=O)COc3ccccc32)CC1	0.8
Clc1cccc(Cl)c1C1N2CCCN12 (stereo not drawn)	i
NC(=S)N/N=C\c1ccc(-c2cccc(Cl)c2Cl)o1	1.2
COc1ccccc1-c1noc(-c2cccs2)n1	i
O=C(OCC(=O)N1CCN(C(=O)c2ccco2)CC1)c1cc(-c2ccco2)nc2ccccc12	i
O=C(NCC1CCCO1)C1CCN(S(=O)(=O)c2cccc3cccnc23)CC1 (stereo not drawn)	1.4
COc1ccc(/C=C(/C#N)C(=O)Nc2ccc(C)cc2C)cc1C(=O)O	0.1
O=C(O)c1n[nH]c2ccccc12	0.6
COC(=O)c1ccc2c(=O)n(CCCN3CCOCC3)c(=S)[nH]c2c1	2.4
CCc1c(C)nc2cc(-c3ccc(OC)c(OC)c3)nn2c1NCC1CC1	i
COc1cccc(C2C=C(c3ccc(Br)s3)Nc3ncnn32)c1OC (stereo not drawn)	i
Cc1ccc(C(=O)NC(=S)NCC2CCCO2)cc1 (stereo not drawn)	i
O=C1CC(N2CCC(c3nc4ccccc4s3)CC2)C(=O)N1 (stereo not drawn)	1.2
CCCn1nnc(NC(=O)c2cccc(OCC)c2)n1	2.7
CCOC(=O)C(Sc1nn(C)c(=S)s1)C(C)=O (stereo not drawn)	i
COc1cc(N/C=C(\C(C)=O)c2ccccc2)cc(OC)c1	0.6
CCOC(=O)Cc1c(C)nc2cc(-c3ccc(C)cc3)[nH]n2c1=O	0.8
COc1ccc(CN2CCC(=O)NC2=O)cc1	0.8
O=C(O)CCc1nn2c3ccccc3nc2n(CCN2CCCCC2)c1=O	0.6
O=c1oc2c3c4c(cc2s1)CCCN4CCC3	3.5
Cn1c(=O)[nH]c(=O)c2c1nc(CN1CCN(c3cccc(Cl)c3)CC1)n2CCc1ccccc1	i
Cn1c(NC(=O)c2cc(Br)ccc2Cl)cc(=O)n(C)c1=O	0.8
O=C(CCCn1c(=O)c2ccccc2n(Cc2ccccc2)c1=O)NCc1ccco1	0.8
Cc1cc(C)n2nc(C(=O)Nc3nnc(C4CC4)s3)nc2n1	0.4
COc1ccc(Br)cc1CNc1ccc(O)cc1	i
CCCCNC(=O)C1CCN(S(=O)(=O)c2c(C)noc2/C=C\c2ccc(OC)cc2)CC1	i
O=C(O)c1nc(N2CCCC2)ncc1Cl	i
CSc1cccc(NC(=O)C2CCN(S(=O)(=O)c3ccc(F)cc3)CC2)c1	i
CCOC(=O)N1CCN(C(=O)Cn2ccc3ccccc3c2=O)CC1	i
CC(C)(C)Nc1nc(Oc2ccc(=O)n(-c3ccccc3)n2)nc(N2CCOCC2)n1	0.1
C/C(Nc1ccc(Cl)cc1)=C(/C#N)C(N)=O	i
O=C(NC(=S)Nc1ccc(S(=O)(=O)N2CCCCC2)cc1)c1ccccc1	0.4
S=c1[nH]nc(CCc2ccccc2)n1Cc1ccccc1	2.1
O=C(Cn1cc2c(n1)CCCC2)Nc1ccccc1Br	1.7
CCOCCCNC(=O)Cc1c(C(=O)O)[nH]c2ccc(Cl)cc12	i
Cc1cccc(C)c1NC(=O)CSc1nnnn1-c1ccc(C(=O)O)cc1	i
COc1ccccc1NC(=O)CSc1nc(O)cc(=O)n1C	1.8
C/C(=N\Nc1nnc(-c2ccccc2)c(-c2ccccc2)n1)c1cccc([N+](=O)[O-])c1	i
COC(=O)CSc1ncc(OC)c(OC)n1	i
CCC(C)c1ccc(Nc2ncccc2C#N)cc1 (stereo not drawn)	i
Cc1cc(C)c(S(=O)(=O)NCCC2CCCN2C)c(C)c1 (stereo not drawn)	i
COc1cc(OC)cc(-c2cc3nc4c(c(N5CCN(c6ncccn6)CC5)n3n2)CCCC4)c1	i
COC(=O)c1ccc(Oc2nc(NC(C)C)nc(N(C)C)n2)cc1	i
CN1CCN(S(=O)(=O)c2ccc(NC(=O)c3ccc(Br)o3)cc2)CC1	i
COc1ccc(C(=O)N(CCN2CCOCC2)CC(=O)NC2CCCC2)cc1OC	i
O=C(C1CCCN(S(=O)(=O)c2cccc3cccnc23)C1)N1CCN(c2ccccc2F)CC1 (stereo not drawn)	2.3
O=C(NCc1ccc2c(c1)OCO2)Oc1ccccc1	1.1
Cc1ccc(NC(=O)C(C)c2ccc(-c3ccccc3)c(F)c2)c(C)c1 (stereo not drawn)	3.1
Cc1cccc(NC(=O)CC2NC3CCCCC3NC2=O)c1 (stereo not drawn)	i
CC(C)COc1ccccc1C(=O)NC(CO)C(=O)O (stereo not drawn)	i
O=C(OCn1nnc2ccccc2c1=O)c1ccco1	i
CCC1(COC(NC(=O)c2cccnc2)(C(F)(F)F)C(F)(F)F)COC1	0.4
CC1(C)CC(NS(=O)(=O)c2ccc(S(=O)(=O)N3CCOCC3)cc2)CCO1 (stereo not drawn)	i
CCC(C)N(NC(C)=O)c1nc(Cl)nc(NC(C)(C)C)n1 (stereo not drawn)	0.2
Cc1nc2nc3c(cn2n1)C(=O)CCC3	1.3
CCOC(=O)C1=C(C)NC(=O)NC1c1ccc(N(CC)CC)cc1 (stereo not drawn)	i
CCOC(=O)CC(=O)CSc1nc2c(sc(=S)n2-c2ccccc2)c(=O)[nH]1	0.8
O=C(NCc1cccs1)Nc1ccc2c(c1)OCO2	1.0
CCSc1cc(C)nc2c(-c3ccccc3)c(C)nn12	i
C=CCNc1sc(C(=O)c2ccccc2)c(N)c1-c1nc2ccccc2s1	1.8

More results follow.
SMILES	H5N1 antiviral
CCOC(=O)c1cc2ccc(OC)c(OC)c2c(=O)s1	i
O=C(COc1ccc(Cl)cc1)NCc1nnc(SCC(=O)c2ccccc2)o1	i
O=C(Nc1ccc(Br)cc1)c1ccc(CSC2=NCCS2)cc1	0.6
NC(=S)Cc1nc2n(n1)Cc1ccccc1-2	0.2
O=C(CSc1ccc(Cl)cc1)N1CCC(c2nc3ccccc3s2)CC1	2.7
O=C(Nc1ccc2c(c1)OCO2)C1CCCN1C(=O)Nc1ccccc1F (stereo not drawn)	i

Gathered by group, those above containing a furan ring, fused or not.
SMILES	H5N1 antiviral
O=C(NC1CCN(C(=S)NCc2ccco2)CC1)c1ccc(F)cc1	i
Nc1c(C(=O)NCc2ccco2)nnn1CC(=O)Nc1ccccc1	i
Cc1coc2cc3oc(=O)c4c(c3cc12)CCCC4	1.9
Cc1ccc(C(=O)N/N=C\c2ccc(Br)o2)o1	1.1
O=C(COC(=O)c1ccc(S(=O)(=O)NCc2ccco2)cc1)NC1CCCCCC1	i
COc1cc(/C=N/c2oc(-c3ccccc3)cc2C#N)ccc1O	0.5
CCOc1ccc2nc(NC(=O)CSc3nc4ccccc4c(=O)n3Cc3ccco3)sc2c1	i
O=C(/C=C/c1ccc(-c2ccccc2[N+](=O)[O-])o1)c1ccc(Br)cc1	i
Clc1ccccc1CSc1nnc(-c2ccccn2)n1Cc1ccco1	i
N#Cc1nc(-c2ccco2)oc1NCCCn1ccnc1	0.8
NC(=S)N/N=C\c1ccc(-c2cccc(Cl)c2Cl)o1	1.2
O=C(OCC(=O)N1CCN(C(=O)c2ccco2)CC1)c1cc(-c2ccco2)nc2ccccc12	i
O=C(CCCn1c(=O)c2ccccc2n(Cc2ccccc2)c1=O)NCc1ccco1	0.8
CN1CCN(S(=O)(=O)c2ccc(NC(=O)c3ccc(Br)o3)cc2)CC1	i
O=C(OCn1nnc2ccccc2c1=O)c1ccco1	i
